HCMV UL50-53 inh: cytomegalovirus nuclear egress complex inhibition; HTRF UL50-UL53 interaction, normalized percent inhibition; inhibition, % (test concentration not listed); actives 0.15% (n = 190,000);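 active = both replicates at 50% or more, plus weaker picks with an unusually low signal ratio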;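 note: stock transfer was 100 nL into about 20 µL; 0% = negative control wells and 100% = wells with untagged competitor protein; inactives centre near -12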
Sa growth inh: inhibitors of Staphylococcus aureus growth at 42 °C; relative growth, % (concentration not given with the values); S. aureus RN4220 growth, OD600, 20 h; stronger effect = lower value; AID 720641; actives 0.53% (n = 170,000);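 active = growth at 42 °C up to 50% and 20 or more points under that at 30 °C, or under 10% at both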;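 note: 300 nL library stock went into each well; scaled to the means of positive and negative controls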
GIV Gai3 FP: inhibitors of GIV GBA-motif binding to rat Galpha-i3; P08753; Galpha-i3/FITC-GIV peptide fluorescence polarization, 90 min; stronger effect = lower value; scaled: aluminum fluoride 0%, vehicle 100%; percent of control (FP), % (test concentration not listed); actives 0.42% (n = 210,000); AID 1224905;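 active = replicate mean at 85% of control or lower, very high polarization wells dropped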;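 note: wells of about 15 µL received 100 nL stock; the first replicate is given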
Target sequence (P08753 whole entry, looked up): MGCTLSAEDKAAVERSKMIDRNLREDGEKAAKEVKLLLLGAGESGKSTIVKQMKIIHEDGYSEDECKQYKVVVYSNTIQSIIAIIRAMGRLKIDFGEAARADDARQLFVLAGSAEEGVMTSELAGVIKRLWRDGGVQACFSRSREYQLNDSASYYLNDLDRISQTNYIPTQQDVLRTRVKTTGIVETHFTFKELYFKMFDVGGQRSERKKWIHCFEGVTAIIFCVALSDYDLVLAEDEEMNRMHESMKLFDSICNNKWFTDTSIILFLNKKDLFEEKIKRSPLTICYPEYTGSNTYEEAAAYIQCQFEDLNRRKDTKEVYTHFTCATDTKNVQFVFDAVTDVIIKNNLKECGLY
Sa growth inh second temp: also measured in Sa growth inh; calls as there; relative growth, %; measured here: growth at 30 °C;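 optical density after 20 h as mean of two plates; 100% = untreated growth and lower means inhibition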
* = called active by the depositor; . = not tested or not shown; & = joins results of further samples.

SMILES | HCMV UL50-53 inh | Sa growth inh | Sa growth inh second temp | GIV Gai3 FP
CCOc1cc(C#N)cc(Br)c1OC(=O)c1oc2ccc(OC)cc2c1C | 9.4 | 117.4 | 106.8 | .
Cc1cc(C)c2c(C)nn(-c3ccc(C(=O)O)cc3)c2n1 | 1.9 | . | . | 103.5
N#Cc1ccc(-c2cn3c(n2)SCC3)cc1 | 33.4 | 108.9 | 84.0 | 108.1
Cc1cc(/C=C2\C(=O)NC(=O)N(c3ccccc3)C2=O)c(C)n1-c1cccc([N+](=O)[O-])c1 | -10.9 | . | . | 118.1
CC1(C)C2CCC1(CS(=O)(=O)N1CCCC1C(=O)O)C(=O)C2 (configuration not stated) | -9.1 | 97.8 | 97.5 | .
CCc1ccc(C(=O)c2cn(CC(=O)Nc3ccc(F)cc3)c3cc4c(cc3c2=O)OCO4)cc1 | 21.0 | 100.0 | 76.1 | 105.0
CCCc1cc(=O)n2[nH]c(-c3ccc(C)cc3)nc2n1 | -7.3&-23.8 | 119.6 | 75.6 | 102.8&98.3
COc1cc(C=C2C(=O)NC(=O)NC2=O)cc(Cl)c1OCCOc1ccccc1C | 61.4* | . | . | 91.6
Cc1ccc(-n2c(=O)c3cccnc3n2CC(=O)NCc2ccc(F)cc2)cc1C | -1.6 | 90.1 | 87.0 | 100.3
O=C(CSc1nc2ccccc2o1)N=Nc1c(O)n(CN2CCCCC2)c2ccccc12 | -26.1 | 92.7 | 77.7 | .
CC(NC(=S)NCCN1CCOCC1)C1CC2CCC1C2 (configuration not stated) | -14.1 | 94.1 | 88.8 | .
O=C1CC(NCc2ccccc2)C(=O)N1c1ccccc1 (configuration not stated) | -16.0 | 93.0 | 86.4 | 100.9
CCc1ccc2c(c1)c1nc(C)sc1n2C | -18.7 | 117.8 | 78.4 | 103.6
CC(=O)Oc1ccccc1C(=O)N(C)C | -22.4 | 92.5 | 82.5 | .
C=CCn1c2ccccc2c2nnc(SCc3ccccc3F)nc21 | -15.2 | 101.7 | 90.8 | .
CCOc1ccc(N2C(=O)CC(N3CCC(O)(c4ccc(Cl)cc4)CC3)C2=O)cc1 (configuration not stated) | -5.8 | 100.1 | 79.9 | 103.7
CC(C)(C)C(=O)NC(=S)Nc1cc(C(F)(F)F)cc(C(F)(F)F)c1 | -24.1 | 97.3 | 85.6 | 99.9
Cc1cc(N2CCN(c3ccccc3)CC2)n2ncnc2n1 | . | 101.4 | 83.0 | 100.2
O=C(/C=C/c1ccccc1)NC(=S)Nc1cccnc1Cl | . | 90.7 | 98.0 | 106.0
O=C(OCC(=O)N1CCCC1=O)c1cccc(S(=O)(=O)NCc2ccccc2)c1 | 13.4 | 101.3 | 84.0 | .
COc1ccc(NC(=O)CSC2=Nc3ccccc3C3=NC(CCC(=O)NCc4cccs4)C(=O)N23)cc1 (configuration not stated) | . | 71.0 | 75.2 | 98.7
NC(=O)COC(=O)C1(c2ccc(Cl)cc2)CCCC1 | 8.2 | 102.2 | 99.9 | .
O=C(Cn1nc2sc3ccccc3n2c(=O)c1=O)c1cccs1 | -34.6 | 92.0 | 83.5 | 103.2
CSc1ccc(C2C3C(=O)NC(=O)C3ON2c2ccccc2)cc1 (configuration not stated) | -4.1 | 104.7 | 84.8 | 99.1
CO/C(N)=N/C(=S)Nc1ccc(C(C)C)cc1 | -42.3 | 82.1 | 71.1 | 104.5
c1ccc(CC2CCN(c3ncnc4c3oc3ccccc34)CC2)cc1 | 1.9 | 87.8 | 56.2 | .
CCC(C)N(C(=O)CSc1nc(N)c2c3c(sc2n1)CCCC3)C1CCS(=O)(=O)C1 (configuration not stated) | -14.5 | 86.3 | 94.7 | .
CSc1cccc(N=C2NC(=O)C(CC(=O)Nc3cccc(SC)c3)S2)c1 (configuration not stated) | -8.1 | 104.0 | 97.9 | 111.3
COc1ccc(CCN2C(=O)CCC2(C)C(=O)NCc2ccccc2)cc1OC (configuration not stated) | -30.7 | 97.3 | 93.6 | 107.4
CCOc1ccc(CCNC(=O)CNC(=O)C2(C)Cn3c(cc4ccccc43)C(=O)N2C)cc1 (configuration not stated) | -12.5 | . | . | 99.7
Cc1ccc(OCC(=O)/C=C2\N(C)c3ccccc3C2(C)C)cc1 | -30.5 | 104.4 | 88.8 | .
CCCCN(C)C(=O)Cn1ncc2c3ccccc3n(CCC)c2c1=O | . | 89.2 | 72.2 | 99.1
CSc1ccccc1C(=O)NCC1COc2ccccc2O1 (configuration not stated) | 12.5 | 91.5 | 91.3 | .
CC(C)NC[C@@H](O)c1ccc(O)c(O)c1 | -17.0&-18.8 | . | . | 103.3
COc1cc(-c2nc3nc(C)cc(C)n3c2Nc2ccc(Cl)cc2)ccc1O | 5.4&-19.5 | 95.0 | 78.7 | 133.0&135.2
COc1ccc(-c2noc(C3CCCN(S(=O)(=O)c4ccc(C)cc4)C3)n2)cc1 (configuration not stated) | 4.7 | . | . | 103.4
COC(=O)COc1ncnc2sc3c(c12)CCC3 | 4.4 | 103.3 | 93.7 | .
CCOC(=O)c1sc2nc3n(c(=O)c2c1C)N=C(c1cc2cc(Cl)ccc2oc1=O)CS3 | . | 111.5 | 88.2 | 100.3
COc1ccc(-c2cc(C(F)(F)F)n3nc(C(=O)Nc4cccc(C(F)(F)F)c4)c(Br)c3n2)cc1 | -54.8 | 103.5 | 82.6 | 105.9
COc1cc(O)c(C(=O)Cc2ccc(Cl)cc2)c(OC)c1 | -18.0 | 80.7 | 85.8 | .
CCS(=O)(=O)c1ccc(O)c(NC(=O)CC2(CC(=O)O)CCCC2)c1 | -18.4 | 91.5 | 83.2 | 104.5
Cc1c(CCC(=O)O)c(=O)oc2cc3occ(C(C)(C)C)c3cc12 | . | 68.2 | 34.5 | 101.3
O=C(O)CC(=O)Nc1ccc(OC(F)(F)F)cc1 | -0.6 | . | . | 102.2
CC(C)(C)NC(=O)NCCC1CCCCN1S(=O)(=O)c1ccccc1 (configuration not stated) | -37.6 | 75.5 | 75.5 | 97.8
Cc1ccc(Nc2nc3ccccc3n3cnnc23)cc1F | -34.7 | . | . | 103.8
O=C(Nc1ncc(Cl)cn1)c1cccs1 | 5.4 | . | . | 97.1
C[C@@H](C(=O)NCc1ccccc1Cl)N1C(=O)C2CC=CCC2C1=O (some centres not stated) | -16.9 | 97.4 | 95.0 | .
O=C(O)C1CC=CCC1C(=O)NCCc1csc(-c2ccccc2)n1 (configuration not stated) | . | 102.2 | 84.2 | 101.5

Ordered by SMILES length (descending): part of the list above.
SMILES | HCMV UL50-53 inh | Sa growth inh | Sa growth inh second temp | GIV Gai3 FP
Cc1c(CCC(=O)O)c(=O)oc2cc3occ(C(C)(C)C)c3cc12 | . | 68.2 | 34.5 | 101.3
CC(C)(C)NC(=O)NCCC1CCCCN1S(=O)(=O)c1ccccc1 (configuration not stated) | -37.6 | 75.5 | 75.5 | 97.8
COC(=O)COc1ncnc2sc3c(c12)CCC3 | 4.4 | 103.3 | 93.7 | .
O=C(Nc1ncc(Cl)cn1)c1cccs1 | 5.4 | . | . | 97.1

Structural class: the entries above containing bromine (two)
SMILES | HCMV UL50-53 inh | Sa growth inh | Sa growth inh second temp | GIV Gai3 FP
CCOc1cc(C#N)cc(Br)c1OC(=O)c1oc2ccc(OC)cc2c1C | 9.4 | 117.4 | 106.8 | .
COc1ccc(-c2cc(C(F)(F)F)n3nc(C(=O)Nc4cccc(C(F)(F)F)c4)c(Br)c3n2)cc1 | -54.8 | 103.5 | 82.6 | 105.9

(cont.)
SMILES | HCMV UL50-53 inh | Sa growth inh | Sa growth inh second temp | GIV Gai3 FP
Cc1csc(SCc2ccccc2C(=O)OCc2nc3scc(-c4ccco4)c3c(=O)[nH]2)n1 | -18.3 | 81.0 | 76.3 | .
CC1=CC(=C(C#N)C#N)C=C(C)N1CCc1ccc(S(N)(=O)=O)cc1 | -25.0 | 86.7 | 83.3 | .
CC1CCCC(NCC(O)COCc2ccc3c(c2)OCO3)C1C (configuration not stated) | 9.3 | 114.0 | 76.8 | .
CC(C)c1ccc(C2C(S(=O)(=O)c3ccccc3)=C(O)C(=O)N2Cc2ccc3c(c2)OCO3)cc1 (configuration not stated) | -20.2 | . | . | 102.8
COC(=O)c1ccccc1NC(=O)N1CCC2(CC1)CC(=O)c1ccccc1O2 | 2.5 | . | . | 104.7
O=C(Nc1ccc(NC(=O)c2ccc([N+](=O)[O-])cc2)c(-c2nc3ccccc3s2)c1)c1ccc([N+](=O)[O-])cc1 | -7.2 | . | . | 104.6
O=C(Cn1cnc2nc3c(cc2c1=O)CCCC3)N1CCN(c2cccc(C(F)(F)F)c2)CC1 | . | 86.6 | 92.6 | 99.3
CCCn1c(=O)c2ccc(C(=O)NC(C)C)cc2n2c(=O)n(CC(=O)c3ccc(Cl)cc3)nc12 | 1.5 | . | . | 107.8
Cc1cccc(NC(=O)CSC2=Nc3ccccc3C3=NC(CC(=O)NCc4cccs4)C(=O)N23)c1 (configuration not stated) | -9.9 | 110.2 | 83.4 | 104.8
CCn1c(CCC(N)=O)n[nH]c1=S | -3.8 | 97.4 | 92.3 | .
CCOC(=O)Cc1csc(-n2nc(C)c(Cl)c2C)n1 | 12.6 | . | . | 100.4
O=C(Cc1ccc(Cl)cc1Cl)N1CCN(c2ccccc2O)CC1 | -35.8 | 91.5 | 74.2 | .
COc1cc2c(cc1OC)n(CC(=O)Nc1ccccc1)c(=O)n1nc(-c3ccccc3)nc21 | -12.9&-26.6 | 98.3 | 92.7 | 100.3&102.7
CCOC(=O)c1c(SCC(=O)Nc2cc(Cl)cc(Cl)c2)nc(=O)[nH]c1C | . | 128.7 | 88.6 | 99.5
O=C(NCCc1cccs1)c1cccs1 | -0.4 | 109.3 | 106.4 | 106.9
CC(C)n1nc(C(=O)Nc2ccc3c(c2)CCC3)c2ccccc2c1=O | -30.4 | 91.2 | 90.4 | .
CCCS(=O)(=O)N1CCCC(C(=O)NCCOC)C1 (configuration not stated) | . | 98.7 | 94.8 | 94.6
O=C(CCn1c(=O)c2sccc2n(Cc2ccc(F)cc2)c1=O)NCc1ccc2c(c1)OCO2 | -3.1 | 103.7 | 87.5 | 106.0
Cc1ccc(S(=O)(=O)CCC(=O)OCn2nnc3ccccc3c2=O)cc1 | -11.0 | 90.6 | 97.8 | .
C=CCSc1nnc2[nH]c(=O)cc(N)n12 | . | 84.0 | 83.4 | 100.0
CCc1nc2ccccc2c(C(=O)OCC(=O)N2C(C)CCCC2C)c1C (configuration not stated) | -13.5 | 115.9 | 74.9 | .
OCCc1c(-c2ccccc2)n(Cc2ccccc2)c2ccccc12 | . | 78.2 | 68.3 | 107.2
O=C1Cc2cc(S(=O)(=O)NCc3cccs3)ccc2N1 | . | 85.0 | 85.5 | 104.6
CC(C)C(=O)Nc1ccc(NC(=O)c2ccccc2)nc1 | -4.9 | 105.2 | 89.2 | 98.6
CC(CCc1ccccc1)NCc1ccc2c(c1)n(C)c(=O)n2C (configuration not stated) | 8.3 | . | . | 105.3
CCOc1ccc(NC(=O)c2c(NC(=O)c3cccc(C)c3)sc3c2CCC3)cc1 | -2.5 | 100.3 | 103.1 | 105.7
CCN(CC)Cc1ccc(C(=O)O)o1 | -8.8 | 92.2 | 103.2 | 103.2
CC(=O)[C@H]1CC[C@H]2[C@@H]3CC=C4C[C@@H](O)CC[C@]4(C)[C@H]3CC[C@]12C | -42.5&-15.1 | 90.0 | 92.6 | 100.7
Cc1ccc(-c2cc(C(=O)OCC(=O)c3ccccc3)c3cccc(Cl)c3n2)cc1 | -14.1 | 90.8 | 97.4 | 98.4
CC(=O)N1CCCSc2ccc(S(=O)(=O)Nc3ncccc3C)cc21 | -27.2 | . | . | 99.4
CCOc1ccc(CNC(=O)C2CCCN(S(=O)(=O)c3ccc4c(ccn4C)c3)C2)cc1 (configuration not stated) | . | 90.2 | 82.6 | 102.0
CCC(=O)N1CCc2cc(S(=O)(=O)NC(Cc3ccccc3)C(=O)Nc3ccc(Cl)cc3)ccc21 (configuration not stated) | -5.1 | 110.7 | 88.7 | 108.3
Nc1cc(C(=O)OCC(=O)N2CCc3ccccc32)ccc1Cl | -40.5 | 92.8 | 84.0 | .
CCC(CC)NC(=O)c1ccc[nH]c1=S | -7.3 | 56.5 | 68.0 | .
COc1ccc(S(=O)(=O)n2c(SCc3ccc(C(F)(F)F)cc3)nc3ccccc32)cc1 | . | 104.0 | 88.6 | 99.4
CCOC(=O)c1ccccc1NC(=O)CN1N=NC2C(=O)N(c3ccc(F)c(F)c3)C(=O)C21 (configuration not stated) | -13.1 | . | . | 100.9
COc1cccc(C(=O)OCC(=O)NC23CC4CC(CC(C4)C2)C3)c1 | 7.0 | 85.0 | 92.5 | .
CC(C)N(C(=O)CSc1nccc(=O)[nH]1)c1ccccc1 | -7.9 | 120.4 | 90.5 | .

Taken from the listing (2 entries):
SMILES | HCMV UL50-53 inh | Sa growth inh | Sa growth inh second temp | GIV Gai3 FP
CC(C)c1ccc(C2C(S(=O)(=O)c3ccccc3)=C(O)C(=O)N2Cc2ccc3c(c2)OCO3)cc1 (configuration not stated) | -20.2 | . | . | 102.8
COC(=O)c1ccccc1NC(=O)N1CCC2(CC1)CC(=O)c1ccccc1O2 | 2.5 | . | . | 104.7
